From PubChem BioAssay
Calb biofilm kill: clotrimazole potentiators killing C. albicans biofilm, primary screen, 4-compound mixtures; inhibition, % at 7.6 µM; 0.02% of 120,000 active; C. albicans biofilm persisters + clotrimazole, fluorescence viability; primary screen in compound mixtures of four per well; AID 1242, 2008;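 active means inhibition above 30.3% in the primary screen of four-compound pools, then above 30% when the compound was retested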;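 further: compounds exposed to preformed 24 h biofilms for 48 h; the number belongs to the whole pool; some results filed as inactive read as strong as hits; inactives centre near 12; 0% = biofilm with clotrimazole alone and 100% = kill control; retested singly at about 60 µM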
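Probe or stimulus – Clotrimazole 50 µg/mL co-treatment · System – C. albicans biofilms · Schedule – 24 h biofilm formation, then 48 h compound exposure, 37 °C · Evaluation – percent inhibition of biofilm viability · Technique – 2-h Alamar Blue fluorescence, 535/590 nm excitation/emission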
Numbers without * were called inactive; & = joins results of further samples. An excerpt. The share of hits here may be higher or lower than overall.

SMILES	Calb biofilm kill
CN(C)c1ccc(C(=S)N2CCNCC2)cc1	8
N=C(SC1CC(=O)N(c2ccc(F)cc2)C1=O)N1N=C(c2ccccc2)CC1c1ccccc1 (centres undefined)	11
Cc1ccc(N2CCN(S(=O)(=O)N3CCCCC3)CC2)cc1Cl	10
Oc1c(C=C2N=c3ccccc3=N2)sc(=S)n1C1CCCCC1	6&7
COCCN1CCN(Cc2nc(C3(c4ccc(C)cc4)CCCC3)no2)CC1	10
Cc1nc(-c2ccc(NS(=O)(=O)c3ccccc3)cc2)cs1	11
COc1ccc(CNCC(=O)Nc2sccc2C#N)cc1	13
COc1cccc(CNCCO)c1OCc1ccccc1Cl	12
N#Cc1cccc(N=c2ssnc2Cl)c1	17
CCNC(=S)N=Nc1c(O)n(Cc2ccc(Cl)cc2)c2ccccc12	13
COc1ccc(OC(=O)c2c(C)nn(-c3ccccc3)c2C)cc1	18
COc1ccc(NS(=O)(=O)c2cc(NC(=O)Cc3cccs3)ccc2C)cc1	15
O=C(CNC(=O)c1ccco1)Nc1ccc(F)cc1	15
COCCNC(=O)C(c1ccc(OC)cc1)N(C(=O)Cn1nnc2ccccc21)c1cccnc1 (centres undefined)	4
Cc1ccc(/C=N/N2CCN(c3ccccn3)CC2)o1	21
O=C1CC(C(=O)O)S/C(=N\N=C\c2ccc(Br)cc2)N1 (centres undefined)	12
Cc1ccc2c(c1)C(=O)CC1(CCC(C(C)(C)C)CC1)O2 (centres undefined)	16
O=P(Cc1ccccc1O)(c1ccccc1)c1ccccc1	4
Cc1cc(C(C)(C)C)oc1C(=O)O	4
COc1cc(NS(=O)(=O)c2ccc(NC(=S)NC(=O)/C=C/c3ccc(OC)c(OC)c3)cc2)ncn1	6
N#Cc1c(N)nc2c(c1-c1ccc(Br)s1)CCCC2	17
O=C(N/N=C/c1cc([N+](=O)[O-])ccc1O)NC12CC3CC(CC(C3)C1)C2	15
COC(=O)CCCC1=CC2=C(c3ccccc3)C(=O)C(C)(OC(=O)C3CCCC3)C(=O)C2=CN1C1CC1 (centres undefined)	13
COc1ccc(NC(=O)CN2CCCN(S(=O)(=O)c3ccc(F)cc3)CC2)c(OC)c1	11
COC(=O)c1ccccc1NC(=O)N1CCN(S(C)(=O)=O)CC1	-3
COc1cc(OC)c2c(=O)cc(-c3ccccc3)oc2c1	15
Cc1cc(Cl)ccc1C(=O)C1CCCN(C(=O)c2ccc3ncccc3c2)C1 (centres undefined)	-1
CCN(C(=O)CSc1nnc(-c2ccccc2)n1C)C1CCS(=O)(=O)C1 (centres undefined)	7
CCS(=O)(=O)c1ccc(Sc2nncn2C)c([N+](=O)[O-])c1	6
O=C(NCc1ccc(F)cc1)C(=O)NCC1OCCN1C(=O)c1cccs1 (centres undefined)	5
COc1cccc(/C=N/NC(=O)C(c2ccncc2)N2CCOCC2)c1 (centres undefined)	28
O=c1cc(CO)[nH]cc1OCc1ccccc1	19
CCN(CC)CCC(=O)Nc1cccc2c1C(=O)c1ccccc1C2=O	11
CC1CCC(NC(=O)c2ccc(CNc3c(NC4CCCCC4)c(=O)c3=O)cc2)CC1 (centres undefined)	12
COc1cc(OC)cc(C(=O)Nc2ccccc2-c2nnn(CC(N)=O)n2)c1	6
Cc1cc(C)nc(NS(=O)(=O)c2ccc(NC(=O)Nc3ccccc3F)cc2)n1	11
CC1CC(C(F)F)n2nc(C(=O)Nc3sc4c(c3C#N)CCC(C(C)(C)C)C4)nc2N1 (centres undefined)	7
COc1cc(Cl)c(C)cc1NC(=O)COC(=O)c1cc[n+]([O-])cc1	8
COc1ccc(OC)c(C(C)NC(=O)Nc2cccc(C(C)=O)c2)c1 (centres undefined)	12
COc1ccc(C(=O)NN(C)c2nc(C(F)(F)F)nc3ccccc23)cc1	-31
Fc1ccc(Nc2nc(-c3ccncc3)nc3ccccc23)cc1F	14
O=C(Cn1c2[n+](c3ccc(C(F)(F)F)cc31)CCCCC2)c1cccc([N+](=O)[O-])c1	17
Cc1cc(C(=O)CN2C(=O)NC3(CCCCC3)C2=O)c(C)n1Cc1ccco1	7
CCCCNC(=O)Cn1cnc2ccc(S(=O)(=O)N3CCC(C)CC3)cc2c1=O	9
CC1CC(C)CN(CCC(=O)Nc2ccc3c(c2)CCC3)C1 (centres undefined)	17
Nc1nonc1-n1nnc(C(=O)N/N=C/c2ccccc2Cl)c1COc1ccc(F)cc1	16
CC(C)N=C(NS(=O)(=O)NC(=O)c1ccccc1)c1ccccc1	20
O=C(OCC(=O)N1CCOCC1)c1c(Cl)ccc(Cl)c1Cl	11
CCNCC(=O)Nc1ccc(N2CCOCC2)cc1	15
C#CCOCCOCCOCCNc1nc(N2CCN(C(=O)C(CCC(=O)O)n3cc(C(N)CC(C)C)nn3)CC2)nc(N2CCN(C(=O)C(Cc3cc4ccccc4[nH]3)n3cc(C(N)Cc4ccc(O)cc4)nn3)CC2)n1 (centres undefined)	11
COc1ccc(CCNC(=S)Nc2ccc(C)cc2C)cc1	15
O=C(CSc1nc2nn(-c3ccccc3)c(=O)c-2c2n1CCCCC2)NCCc1ccccc1	17
Cc1ccc(/C=N/N2CCN(c3ccccn3)CC2)cc1	-2
C=CCO/N=C(/C)c1ccc(Oc2cnccn2)cc1	11
CCOC(=O)c1c(NC(=O)/C=C/C(=O)O)sc(C)c1-c1ccc(C)c(C)c1	12
O=C(CSc1nnc(-c2cccnc2)o1)Nc1ccc(Cl)cc1	-4
O=C1c2cccc3cccc(c23)C(=O)N1c1ccc2ncccc2c1	16
CN(C)CCNC(=O)c1cccc(S(=O)(=O)Nc2ccc(F)cc2)c1	17
CCn1ccc(C(=O)N2CCOCC2)n1	10
O=C(Nc1ccc(-n2cnnn2)cc1)C(c1ccccc1)c1ccccc1	20

The list goes on:
SMILES	Calb biofilm kill
O=C(Nc1ccc(S(=O)(=O)NCc2cccnc2)cc1)c1ccccc1Cl	15
COc1cc(C(=O)Nn2c(O)c(C3=c4ccccc4=NC3=O)sc2=S)ccc1O	43
CCNC(=O)NNC(=O)C1CC(c2cccs2)=NO1 (centres undefined)	19
COc1cccc(NC(=O)Nc2cnccn2)c1	4
CO/N=C/CC(=O)c1cnc(-c2ccccc2)s1	0
CC(C)(C)C(=O)NC(=S)Nc1ccc(Cl)c(C(=O)O)c1	6
COc1cccc(CNC(=O)CCC2CCCN(C(=O)c3csc(C(C)C)n3)C2)c1 (centres undefined)	14
NS(=O)(=O)c1cc(C(=O)OCC(=O)Nc2ccc(N3CCCCC3)cc2)ccc1Cl	4
O=C(CNC(=O)C(c1ccccc1)c1ccccc1)OCC(=O)c1cccs1	6
N#Cc1ccccc1NC(=O)CC1c2ccccc2Oc2ccccc21	14
O=C(O)C1CSC2(CCN(Cc3ccccc3)CC2)N1 (centres undefined)	0
CN(CCc1cn[nH]c1)Cc1nc(Cc2ccccc2F)no1	13
O=C(Nc1cccs1)Nc1c(F)c(F)cc(F)c1F	3
Cc1ccc(CC2S/C(=C(/C#N)C(=O)N3CCOCC3)N(c3ccccc3)C2=O)cc1 (centres undefined)	4
COc1ccc(Cn2ccnc2CO)cc1[N+](=O)[O-]	9
O=C(Nc1cccc2ccccc12)C(=O)C1C(=O)Nc2ccccc21 (centres undefined)	19
CCn1ncc(-c2cc(C(=O)O)no2)c1C	21
C/C(=N\NC(=O)c1ccccc1NC(=O)c1ccc(Cl)cc1)c1ccncc1	12
CCn1c(SCC(=O)NNC(=O)c2ccc(OC)cc2)nnc1-c1ccco1	-1
C#CCNC(=O)C1=C[C@H](C(C)(C)C)C[C@H](OCc2ccc(CO)cc2)O1	2
O=C(CCn1cnnn1)Nc1ccc(Cl)c(Cl)c1	10
COc1ccc2nc(C)cc(SCC(=O)NNC(=O)COc3cccc4ccccc34)c2c1	20
CC(Oc1ccc(-n2cnnn2)cc1)C(=O)O (centres undefined)	11
CCOCCn1c(CN2CCN(CC)CC2)nc2c1c(=O)n(C)c(=O)n2C	-3
COc1cc(/C=C/C(=O)OCC(=O)NC(=O)NC23CC4CC(CC(C4)C2)C3)ccc1OCC#N	3
CC(=O)c1cccc(NC(=O)N2CCCC(C(=O)c3cc(F)ccc3F)C2)c1 (centres undefined)	26
O=C1C(Cl)=C(NS(=O)(=O)c2ccc([N+](=O)[O-])cc2)C(=O)c2ccccc21	8
CCSc1nnc(NC(=O)C2CCN(S(=O)(=O)c3ccccc3C(F)(F)F)CC2)s1	15
CCN(c1ccccc1)S(=O)(=O)c1ccc(Cl)c(NC(=O)CN2C(=O)NC3(CCCC3)C2=O)c1	13
Cc1ccc(NC(=O)N(Cc2cccs2)Cc2cc3cc4c(cc3[nH]c2=O)OCO4)cc1	7
CCOC(=O)c1nn(-c2cccc(OC)c2)c2nc(CC)c(C#N)c(=O)n12	14
CC(=O)c1c(N2CCN(Cc3ccccc3)CC2)nc(=S)n(-c2ccccc2)c1C	10
COc1ccc(/C=C(\C#N)C(=O)OCC(=O)NC2CC2)cc1	19
Cc1nn2c(C(F)(F)F)c3c(nc2c1-c1ccccc1)CCC3	28
O=C(NNS(=O)(=O)c1ccccc1[N+](=O)[O-])c1cccc(Cl)c1	17
CC1=C(C(=O)Nc2ccc(Cl)cc2)C2(CCCCC2)C(C(N)=O)C(=S)N1 (centres undefined)	-3
Cc1cc(=O)n(C)c(=O)n1CCCCCCOc1cccc([N+](=O)[O-])c1	1
O=C1CN(c2nc(-c3ccccc3)c3cc(Cl)ccc3n2)c2ccccc2N1	11
OCCC1CN(Cc2ccc(Oc3ncccn3)cc2)CCN1C1CCCC1 (centres undefined)	13
CCOC(=O)c1csc(-c2snnc2C)n1	19

Brought forward from above: two entries; new compounds follow.
SMILES	Calb biofilm kill
OCCC1CN(Cc2ccc(Oc3ncccn3)cc2)CCN1C1CCCC1 (centres undefined)	13
CCOC(=O)c1csc(-c2snnc2C)n1	19
Cc1ccc(NC(=O)n2ccc(-c3ccc(-n4ccnc4)cc3)n2)cc1	20
CSc1nnc2c(n1)OC=Nc1ccc(Br)cc1-2	15
CC(C)NC(=O)CCn1c(=S)oc2ccccc21	7
O=C(Cc1ccc(Cl)cc1)Nc1ccccc1Sc1ccccc1	12
O=C(NCC1CCCO1)C(c1ccncc1)N(Cc1cccs1)C(=O)CN1C(=O)c2ccccc2S1(=O)=O (centres undefined)	2
C/C(=N\NC(=O)CCn1nnc2ccccc21)c1ccco1	18
Cc1cc(C)n(-c2nc3ccccc3c(=O)n2OCCOc2ccccc2)n1	14
Cc1ccccc1C(=O)NC1CC2CCC(C1)N2Cc1ccccc1 (centres undefined)	12
O=C1N/C(=C/c2cccn2-c2ccccc2)C(=O)N1c1cccc(Cl)c1	17
Cc1ccccc1Cn1c(=O)[nH]c2ccccc21	22
CN(Cc1ccccc1)c1ncc(C=O)s1	3
CCCCCCn1c(CN2CCCCC2C)nc2c1c(=O)n(C)c(=O)n2C (centres undefined)	-4
Cc1c(C(=O)O)[nH]c2ccc([N+](=O)[O-])cc12	12
CC(C)c1cccc(O)c(=O)c1	31
Nc1ncnc(Oc2cccc(C(F)(F)F)c2)c1[N+](=O)[O-]	15
S=c1[nH]ccn1-c1cccc(Cl)c1Cl	26
O=C(Nc1ccc2c(c1)Cc1ccccc1-2)c1cccnc1	17
CN(C(=O)CSc1nnc(-c2ccncc2)n1-c1ccccc1)C1CCS(=O)(=O)C1 (centres undefined)	8
CCNc1nc(NCC)nc(N(C#N)CCOc2ccccc2)n1	15
O=C1CCCN1CC1CCCN(Cc2nc(COc3ccccc3)no2)C1 (centres undefined)	1
CC(C)(C)NC(=O)CCc1nnc(Cc2c[nH]c3ccccc23)o1	12
CC1=C(C(=O)N2CCCC(CCC(=O)NCc3ccccc3F)C2)OCCO1 (centres undefined)	17
C[C@]12CC[C@@H]3c4ccc(O)cc4CC[C@H]3[C@@H]1CC[C@@H]2OC(=O)CCC(=O)O	18
CC1COc2ccccc2N1S(=O)(=O)c1ccccc1 (centres undefined)	5

Of the compounds above, these have fluorine:
SMILES	Calb biofilm kill
N=C(SC1CC(=O)N(c2ccc(F)cc2)C1=O)N1N=C(c2ccccc2)CC1c1ccccc1 (centres undefined)	11
O=C(CNC(=O)c1ccco1)Nc1ccc(F)cc1	15
COc1ccc(NC(=O)CN2CCCN(S(=O)(=O)c3ccc(F)cc3)CC2)c(OC)c1	11
O=C(NCc1ccc(F)cc1)C(=O)NCC1OCCN1C(=O)c1cccs1 (centres undefined)	5
Cc1cc(C)nc(NS(=O)(=O)c2ccc(NC(=O)Nc3ccccc3F)cc2)n1	11
CC1CC(C(F)F)n2nc(C(=O)Nc3sc4c(c3C#N)CCC(C(C)(C)C)C4)nc2N1 (centres undefined)	7
COc1ccc(C(=O)NN(C)c2nc(C(F)(F)F)nc3ccccc23)cc1	-31
Fc1ccc(Nc2nc(-c3ccncc3)nc3ccccc23)cc1F	14
O=C(Cn1c2[n+](c3ccc(C(F)(F)F)cc31)CCCCC2)c1cccc([N+](=O)[O-])c1	17
Nc1nonc1-n1nnc(C(=O)N/N=C/c2ccccc2Cl)c1COc1ccc(F)cc1	16
CN(C)CCNC(=O)c1cccc(S(=O)(=O)Nc2ccc(F)cc2)c1	17
CN(CCc1cn[nH]c1)Cc1nc(Cc2ccccc2F)no1	13
O=C(Nc1cccs1)Nc1c(F)c(F)cc(F)c1F	3
CC(=O)c1cccc(NC(=O)N2CCCC(C(=O)c3cc(F)ccc3F)C2)c1 (centres undefined)	26
CCSc1nnc(NC(=O)C2CCN(S(=O)(=O)c3ccccc3C(F)(F)F)CC2)s1	15
Cc1nn2c(C(F)(F)F)c3c(nc2c1-c1ccccc1)CCC3	28
Nc1ncnc(Oc2cccc(C(F)(F)F)c2)c1[N+](=O)[O-]	15
CC1=C(C(=O)N2CCCC(CCC(=O)NCc3ccccc3F)C2)OCCO1 (centres undefined)	17
